RE007 growth inh – less growth of the S. pombe RE007 Vpr strain. S. pombe RE007 Vpr strain, BacTiter-Glo ATP luminescence, 24 h; control for the full effect not named in the record. Potency, µM (series often up to 92.2 µM), without a hit: top-dose activity change, negative = less growth. actives 0.21% (n = 360,000). AID 651644; active = well fitted falling curve with a large enough effect; inconclusive = small, poorly fitted or top-dose-only effect; inactive = no such curve, though single readings can be large or run the other way;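 further: on the % scale 0 is the no-effect control and ±100 the full control effect; nearly all actives have a fitted effect of over 50% in size; the assay follows cell death caused by Vpr and the record does not say whether a fall means rescue or toxicity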
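Fission yeast strain RE007, carrying one chromosomally integrated HIV-1 vpr copy, was seeded at OD 0.01 in PMG+AL medium with 23 nL pinned compound. After 24 h at 30 °C and 99% humidity, viability was read by BacTiter-Glo luminescence.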
Cruzain inh noDet – inhibitors of Trypanosoma cruzi cruzain without detergent. purified cruzain, Z-FR-AMC fluorescence, no detergent. actives 2.3% (n = 200,000). Potency, µM, without a hit: max response, negative = inhibition, usual class: inhibitors. P25779; active means well fitted curve in the direction sought with a large enough effect; inconclusive means small, poorly fitted or top-dose-only effect, or another doubt; inactive means no such curve, though single readings can be large; an effect the other way counts as inactive or inconclusive;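 further: plate controls were enzyme without inhibitor for no effect and buffer without enzyme for full effect; nearly all actives have a fitted effect of over 40% in size; top concentration of the series not given in the record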
Target sequence (P25779 123-467 limits assumed): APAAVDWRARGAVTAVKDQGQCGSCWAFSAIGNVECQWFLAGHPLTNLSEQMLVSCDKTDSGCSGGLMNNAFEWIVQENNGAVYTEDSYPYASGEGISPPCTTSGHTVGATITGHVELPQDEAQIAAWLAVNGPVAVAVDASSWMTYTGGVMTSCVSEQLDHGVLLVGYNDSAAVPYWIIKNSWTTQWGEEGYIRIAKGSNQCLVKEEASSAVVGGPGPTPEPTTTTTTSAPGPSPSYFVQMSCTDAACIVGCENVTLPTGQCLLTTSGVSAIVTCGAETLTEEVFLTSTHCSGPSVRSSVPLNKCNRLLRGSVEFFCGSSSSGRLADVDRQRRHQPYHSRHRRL
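Detergent-free condition (0.00005% Triton X-100) in acetate buffer pH 5.5 with DTT. 1.5 nM enzyme and compound were pre-mixed 15 min, then 2 uM Z-FR-AMC substrate added; reaction progress from fluorescence change between first and third reads (60 s).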
LASV entry inh – blocks Lassa virus binding to or entry into cells. Lassa virus pseudotype entry inhibition, cell reporter; control for the full effect not named in the record. Potency, µM (series often up to 37.9 µM), without a hit: top-dose activity change, negative = inhibition, actives largely listed as inhibitors. actives 1.2% (n = 300,000). AID 540256; active means well fitted inhibition curve with a large enough effect; inconclusive means small, poorly fitted or top-dose-only effect, or effect the other way; inactive means flat fitted curve, though single readings scatter; tested in HEK293 cells; further: on the % scale 0 is the no-effect control and ±100 the full control effect; nearly all actives have a fitted effect of over 50% in size; luciferase read-out
Cruzain inh Det – inhibitors of Trypanosoma cruzi cruzain with detergent | P25779 | purified cruzain, Z-FR-AMC fluorescence, 0.01% Triton | Potency, µM, without a hit: max response, negative = inhibition, most hits filed as inhibitors | actives 0.43% (n = 200,000); active means well fitted curve in the direction sought with a large enough effect; inconclusive means small, poorly fitted or top-dose-only effect, or another doubt; inactive means no such curve, though single readings can be large; an effect the other way counts as inactive or inconclusive;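 further: plate controls were neutral wells for no effect and buffer without enzyme for full effect; nearly all actives have a fitted effect of over 40% in size; top concentration of the series not given in the record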
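Sodium acetate buffer (100 mM, pH 5.5) containing 5 mM DTT and 0.01% Triton X-100 hosted 1.5 nM cruzain and test compound for 15 min at room temperature. Cleavage of 2 uM Z-FR-AMC was then tracked by fluorescence.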
StopGo reporter – lowers the luciferase signal of an FMDV 2A StopGo reporter; human cells with a luciferase reporter of 2A StopGo recoding; control for the full effect not named in the record; Potency, µM (highest dose often 57.9 µM), for the others: at the top dose signal change, negative = less light; actives 1.2% (n = 410,000); AID 1159524; active = well fitted falling curve with a large enough effect; inconclusive = small, poorly fitted or top-dose-only effect; inactive = no such curve, though single readings can be large or run the other way; tested in HEK293T cells; further: on the % scale 0 is the no-effect control and ±100 the full control effect; nearly all actives have a fitted effect of over 45% in size; luciferase light after 4 h
SARS PLP yeast – inhibitors of SARS-CoV papain-like protease in yeast; S. cerevisiae expressing SARS-CoV PLpro, growth rescue; control for the full effect not named in the record; Potency, µM (doses to about 32.9 µM), without a hit: at the top dose activity, positive = growth rescue; actives 0.19% (n = 330,000); AID 485353; further: 0% is about no effect; nearly all actives have a fitted effect of over 55% in size; growth read by luminescence after 48 h
Marburg entry inh – Marburg virus entry inhibition; Potency, µM (titrated, usually from 37.8 µM), for inactives: at the highest dose activity change, negative = inhibition, usual class: inhibitors; Marburg virus pseudotyped entry inhibition, cell reporter; control for the full effect not named in the record; about a third of the inactives were read at about 46 µM; actives 1.8% (n = 300,000); AID 540276; active = well fitted inhibition curve with a large enough effect; inconclusive = small, poorly fitted or top-dose-only effect, or effect the other way; inactive = flat fitted curve, though single readings scatter; tested in HEK293 cells; about a fifth of its hits are not listed in these tables; further: on the % scale 0 is the no-effect control and ±100 the full control effect; luciferase read-out
NS1 function inh – inhibitors of influenza NS1 protein function; S. cerevisiae slowed by influenza A NS1, growth recovery by OD600; Potency, µM (top dose mostly 46.1 µM), inactives show at the top dose activity, positive = more growth; actives 0.4% (n = 270,000); AID 2326; further: actives are rising curves; nearly all actives have a fitted effect of over 50% in size
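A cell-based growth assay was used: compounds that relieve NS1-induced slow growth of budding yeast raise OD600. Assay medium was yeast nitrogen base with ammonium sulphate and -URA supplement, pH 6.0, with 2% galactose.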
Active calls of the source: *; ? = inconclusive; . = no result given; & = joins results of further samples; [ ] = another dose, or the depositor's remark. Unless noted, the call rests on the fitted dose curve; in most records, active means well fitted rising curve with a large enough effect; inconclusive means small, poorly fitted or top-dose-only effect; inactive means no such curve, though single readings can be large or run the other way. Potency means the concentration at half of the fitted maximal effect. No enrichment for hits; overall some 4.7% were active at least once.

structure | NS1 function inh | Marburg entry inh | Cruzain inh noDet | RE007 growth inh | SARS PLP yeast | Cruzain inh Det | StopGo reporter | LASV entry inh
C=CCn1c(=O)[nH]c2nc3cc(N=CN(C)C)c(C)cc3nc2c1=O | -1% | . | . | -14% | 1% | . | 52%[activator] | .
COc1cccc(N(C(=O)c2snc(C(N)=O)c2N)C(C(=O)NCC2CCCO2)c2ccc3ncccc3c2)c1 (stereo unspecified) | -5% | 7%[46.1 µM] | . | 32% | -1% | . | -19% | 21%
O=C(CNC(=O)c1ccccc1F)Nc1ccc2c(c1)CCC2 | . | ? | . | -3% | -2% | . | 65%[activator] | ?
Cn1c(SCc2ccc(Br)cc2)nc2c(c1=O)SCC2 | . | -11%[46.1 µM] | . | 18% | -5% | . | ? | ?
N#Cc1ccccc1NC(=O)COC(=O)CSc1nc2ccccc2o1 | 6% | 20%[46.1 µM] | -4% | -20% | -19% | 0.2% | -23% | 2%
Cc1ccc(-c2nc(CN(C)Cc3ccc4nccnc4c3)c(C)o2)s1 | -1% | 7% | . | -6% | -3% | . | -13% | 6%
CCCc1ccc2oc(C(=O)N(C)Cc3nccs3)c(C)c2c1 | -86% | . | . | -13% | -1% | . | 18% | .
Cc1cc(NCc2ccco2)nc(N2CCC(C(=O)NC3CCCCC3)CC2)n1 | 1% | ? | . | -25% | -1% | . | -24% | ?
CC(C)(C)NC(=O)Cn1c(=O)oc2cc(S(=O)(=O)N3CCc4ccccc43)ccc21 | ? | -9% | -8% | 8% | 2% | -6.0% | -26% | .
COC(=O)c1ccc(NC(=O)CCc2c(C)nn(-c3ccc(N4CCCC4)nn3)c2C)cc1 | . | . | -7% | . | . | -0.7% | 9% | 6%[46.1 µM]
Cc1cc(C)n2nc(-c3cnn(C)c3C(F)(F)F)c(Cl)c2n1 | 7% | 2% | 11% | -26% | 4% | 4.7% | -7% | 17%
CC1(c2ccccc2)NC(=O)N(CC(=O)Nc2cc(C(F)(F)F)ccc2N2CCCCC2)C1=O (stereo unspecified) | . | ? | . | -3% | . | . | -17% | -4%
COc1ccc(NC(=O)c2ccco2)c([N+](=O)[O-])c1 | 3% | ? | -1% | -24% | -11% | -3.0% | 32%[activator] | ?
Cc1cccc(NC(=S)N(Cc2cccs2)Cc2cc3cc(C)cc(C)c3[nH]c2=O)c1 | 10% | ? | 25µM* | -7% | 1% | -2.9% | -4% | ?
Cc1ccccc1NC1=NC(=S)N(c2ccccc2)C12CCOC(C)(C)C2 (stereo unspecified) | 6% | 18% | -10% | -3%[3.69 µM] | 5% | 0.4% | -11% | 15%
COc1cc(C2Nc3ccc4ccccc4c3C3=C2C(=O)CC(C)(C)C3)ccc1OC(C)C(=O)O (stereo unspecified) | 11% | ? | . | 7% | -2% | . | 14% | -7%[46.1 µM]
Cn1cc(C(=O)N/N=C/C(Br)=C/c2ccccc2)ccc1=O | 0% | 4% | -6% | 6% | -48% | -5.5% | 18% | -7%
N#Cc1cc(Sc2ccccn2)c(Sc2ccccn2)cc1C#N | 4% | -9% | 1% | -2% | 11% | -4.9% | 12% | -14%
CC1=CC(C)(C)N2C(=O)C3(NCCc4c3[nH]c3ccccc43)c3cc(C)cc1c32 (stereo unspecified) | -5% | . | . | -1% | -1% | . | -21% | .
Fc1ccc(CNc2ncnc3onc(-c4ccc(F)cc4)c23)cc1 | . | . | -9% | . | . | -6.1% | ? | 17%[46.1 µM]
Cc1ccc(CC(=O)N(Cc2nc(-c3ccc(C)cc3)no2)C(C)C)cc1 | . | -13%[46.1 µM] | 23% | . | . | -3.0% | -20% | -9%[46.1 µM]
O=C(Cc1ccccc1F)NCC1(N2CCOCC2)CCCCC1 | 0% | -4%[46.1 µM] | . | 8% | -1% | . | -21% | 8%
Cc1cccc(N2CCN(C(=O)C3CCN(S(=O)(=O)N4CCOCC4)CC3)CC2)c1C | . | 0% | . | 16% | 2% | . | ? | ?
Cc1cc2ncn(C(=O)N3CCC(C)CC3)c2cc1C | -1% | 29% | 4% | -17% | 22% | -2.0% | 33%[activator] | ?
CC(=O)c1sc(NC(=O)CN2C(=O)C3CC=CCC3C2=O)nc1-c1ccccc1 (stereo unspecified) | . | ? | . | 7% | -7% | . | -11% | 4%
Cc1ccc(S(=O)(=O)CCC(=O)OCC(=O)c2c(N)n(CC(C)C)c(=O)n(C)c2=O)cc1 | -6% | 16% | . | -6% | ? | . | ? | -9%
CCn1c(CNC(=O)c2ccccc2F)nnc1SCCOc1ccccc1 | . | ? | . | 2% | 1% | . | -10% | -29%[46.1 µM]
Cc1cc(OCC(=O)N(C)c2ccccc2)cc2c1C(=O)CC(C)(C)O2 | -11% | -20%[46.1 µM] | . | 5% | 0% | . | -2% | ?
Cc1ccccc1CSCCNC(=O)c1ccc(N(C)S(=O)(=O)c2ccccc2)cc1 | -53% | -1% | -2% | -9% | -7% | -3.4% | ? | ?
CC(=O)c1cccc(NC(=O)/C=C/c2ccc([N+](=O)[O-])s2)c1 | . | ? | . | -7% | 0% | . | ? | 7.1µM*
CNS(=O)(=O)c1cccc(C(=O)OCC(=O)c2c(N)n(C)c(=O)n(C)c2=O)c1 | 3% | 10%[46.1 µM] | . | -8% | 0% | . | 15% | -16%
Cc1cc(C)cc(NS(=O)(=O)c2ccc(-c3cnc(C4CC4)o3)cc2)c1 | -12% | . | . | -2% | -3% | . | -9% | .
COc1ccc(S(=O)(=O)Cc2ccc(C(=O)NCCc3ccc(S(N)(=O)=O)cc3)o2)cc1 | -6% | 7% | -6% | -1% | 0% | 0.0% | 0% | .
Cc1cc(OCC(=O)N2CCOCC2)ccc1NC(=O)c1ccccc1C | 16% | 16%[46.1 µM] | . | 1% | -1% | . | -2% | -1%[46.1 µM]
NC(=O)NC(=O)CC1S/C(=N/N=C2/NC(=O)CS2)NC1=O (stereo unspecified) | 1% | -14% | . | -9% | -1% | . | -5% | -5%
CC(C)(C)NC(=O)NC(=O)CSc1nnc2ccccn12 | 9% | 21% | 4% | -4% | 5% | 1.0% | -10% | 4%
CC(Sc1cnccn1)C(=O)O (stereo unspecified) | -1% | 15%[46.1 µM] | . | 1% | 4% | . | 5% | 9%
CCOC(=O)CSC1=N/C(=C\c2cccnc2)C(=O)N1c1ccc(OC)cc1 | -3% | ? | -1% | 3% | -16% | -4.7% | -18% | 1%
O=C(NCC1CCCO1)c1ccc(COc2ccccc2Br)cc1 (stereo unspecified) | -14% | ? | 19% | -6% | 0% | -7.0% | 2% | ?
COc1ccc(/C=N/Nc2cc(C)nc(NS(=O)(=O)c3ccc(C)cc3)n2)cc1 | -20% | -16%[46.1 µM] | 6% | 3% | 7% | -11% | 27% | -20%[46.1 µM]
COc1cc(OC)c2c(c1)C(=O)c1cc(OC)cc(OC)c1C2=O | 2% | 10% | -3% | -11% | -1% | 0.3% | 9% | -1%
O=S(=O)(c1ccc2nc(-c3ccccc3)[nH]c2c1)N1CCN(c2cccc(Cl)c2)CC1 | 11% | ? | -10% | 5% | -2% | -0.6% | -22% | -16%&-28%
CCOC(=O)N1CCN(C(=O)CCS(=O)(=O)c2ccc3c(c2)CCN3C(=O)CC)CC1 | 5% | 5%[46.1 µM] | . | -7% | -3% | . | 13% | 1%[46.1 µM]
Cc1nc2scc(-c3cccs3)c2c(=O)n1-n1cccc1 | -8% | -10% | -13% | -2% | -4% | -9.8% | -13% | -12%
CN=C(Nc1cc(C)nn1CCC#N)c1ccccc1F | 5% | -17% | 14% | -6% | 2% | 2.0% | . | 20%
COc1cc(/C=N/NC(=O)c2cncc(Br)c2)cc([N+](=O)[O-])c1O | 1% | . | . | 3% | 2% | . | 11% | .
O=C1CN(C(=O)c2ccc(S(=O)(=O)N3CCCC3)cc2)C(c2ccccc2)c2cc(Br)ccc2N1 (stereo unspecified) | . | 4%[46.1 µM] | 6% | . | . | -4.4% | 0% | ?
O=C(CN1CCCN(S(=O)(=O)c2ccc(Br)s2)CC1)Nc1ccc(Cl)cc1 | -1% | ? | 6% | 15% | 14% | -5.8% | -27% | -17%
CCC(=O)N1CCc2cc(S(=O)(=O)CCC(=O)N3CCN(c4cccc(C)c4)C(C)C3)ccc21 (stereo unspecified) | . | -18%[46.1 µM] | ? | . | . | -1.8% | 0% | -28%[46.1 µM]
COc1ccc(/C(O)=C2/C(=O)C(=O)N(CCCN(C)C)C2c2cccc(Cl)c2)cc1OC (stereo unspecified) | 0% | ? | 9% | 10% | 14% | -2.3% | -19% | 5%
CNC(=O)c1c(NC(=O)c2ccc(N3C(=O)CCC3=O)cc2)sc2c1CCC(C)C2 (stereo unspecified) | . | -5% | . | -8% | . | . | -14% | 5%
CCC(=O)Nc1sc2c(c1C#N)CCC2 | . | 1%[46.1 µM] | . | -9% | 0% | . | 7% | .
CCN(C(=O)c1ccccc1)c1ccc([N+](=O)[O-])cc1 | -2% | 13% | -8% | 11% | 8% | -2.3% | -4% | 0%
N#CC(C#N)=C(Nc1ccc(F)cc1)SCc1cccc(Br)c1 | -41% | ? | -13% | 1% | -48% | -9.8% | 1.8µM* | ?
COc1ccccc1Nc1nnc(SCC2CCCCO2)s1 (stereo unspecified) | . | 7.1µM* | . | -21% | 3% | . | -48% | .
COc1ccccc1N(C(=O)c1cncc(Br)c1)c1nc(-c2ccc(C)cc2)cs1 | 25% | -45% | 13µM* | 3% | 5% | -1.9% | -7% | 15%
c1coc(-c2nnc(NC3=NCCC3)o2)c1 | 4% | ? | -3% | -4% | -2% | -0.3% | 28% | ?

Screening results deposited in PubChem BioAssay by National Center for Advancing Translational Sciences (NCATS).
